Vaccinia stage = blocks a specific stage of Vaccinia orthopoxvirus infection, primary screen, cell-based, single point; Vaccinia-infected cells, mCherry/Venus stage reporter fluorescence; stronger effect = lower value; some inactives read as strong as hits; activity change (mCherry), % (no concentration beside the values); 89,000 compounds, 0.01% hits; AID 1053133, 2014;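 active means mCherry past -33% and 40 or more points under the early reporter, replicates agreeing; inconclusive means past -33% without that gap or agreement; tested in A549 cells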;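 further: scaled between vehicle wells and reference inhibitor wells; 23 nL library stock went into each well; one replicate is shown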
Vaccinia stage Venus = further read-out of Vaccinia stage, marked with its call; activity change (Venus), %; measured here: Venus reporter, other viral stage;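 negative = less Venus signal; first of two replicates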
* = called active by the depositor; u = inconclusive; x = no result given; & = joins results of further samples. Only part of the results is shown; count on the stated rates, not on these rows.

The line under a structure holds: Vaccinia stage	Vaccinia stage Venus
- C[C@H](CO)N1C[C@H](C)[C@H](CN(C)C(=O)NC2CCCCC2)Oc2ccc(NC(=O)C3CCCCC3)cc2C1=O
→ 17.4	6.4
- C[C@H]1CCCCO[C@H](CN(C)S(=O)(=O)c2ccccc2)[C@@H](C)CN([C@@H](C)CO)C(=O)c2cc(NS(=O)(=O)c3ccccc3)ccc2O1
→ u	x
- C[C@@H]1CN([C@@H](C)CO)C(=O)c2cc(NS(=O)(=O)c3ccccc3)ccc2O[C@H]1CN(C)C(=O)Nc1ccc2c(c1)OCO2
→ 13.9	14.3
- C[C@@H]1CN([C@@H](C)CO)C(=O)c2cc(C#CCN(C)C)cnc2O[C@H]1CN(C)Cc1ccncc1
→ 10.1	5.4
- COc1ccc(NC(=O)Nc2ccc3c(c2)C(=O)N([C@H](C)CO)C[C@@H](C)[C@H](CN(C)C(=O)Nc2ccc(C(F)(F)F)cc2)O3)cc1
→ -4.5	-6.8
- C[C@@H]1CCCCO[C@@H](CN(C)C(=O)Cc2ccccc2)[C@@H](C)CN([C@@H](C)CO)C(=O)c2cc(NC(=O)Nc3ccc4c(c3)OCO4)ccc2O1
→ 14.9	5.1
- O=C(Nc1nccs1)[C@H]1[C@H](CO)[C@H]2Cn3c(ccc(-c4cccnc4)c3=O)[C@H]2N1CC1CCCC1
→ -0.7	2.9
- C[C@@H]1CN([C@@H](C)CO)S(=O)(=O)c2ccc(C3=CCCC3)cc2O[C@H]1CN(C)C(=O)C1CCC1
→ 10.9	18.4
- Cc1noc(C)c1NC(=O)N(C)C[C@@H]1Oc2ccc(NC(=O)C3CCCCC3)cc2CC(=O)N([C@@H](C)CO)C[C@@H]1C
→ 3.6	2.7
- C/C=C/c1ccc(C2[C@H]3CNC[C@@H]2N3C(=O)Nc2ccc(F)cc2)cc1 (stereo partly specified)
→ -2.6&0.3	-0.5&2.5
- COCC(=O)N[C@@H]1C=C[C@@H](CC(=O)NCc2ccc(Cl)cc2)O[C@H]1CO
→ 8.6	8.7
- COc1ccc2c3c(n(C)c2c1)[C@@H](CO)N(CC1CCOCC1)CC31CN(CC2CCOCC2)C1
→ 3.2	0.0
- N#C[C@@H]1N[C@@H](CO)[C@H]1c1ccc(-c2ccccc2F)cc1
→ -14.0	-18.4
- COC(=O)C[C@H]1CC[C@H]2[C@@H](COc3ccc(NS(=O)(=O)c4cccc(F)c4)cc3C(=O)N2C)O1
→ 6.3	4.1
- COc1ccc2c3c([nH]c2c1)[C@H](CO)N(CC1CC1)CC31CCN(C(=O)Nc2cccc(F)c2)CC1
→ -9.0	-3.5
- O=C(Nc1ccc(F)cc1)N1CC(=O)N2[C@H](CO)[C@@H](c3ccc(Br)cc3)[C@@H]2C1
→ -9.3	-4.1
- Cc1noc(C)c1S(=O)(=O)Nc1ccc2c(c1)C(=O)N([C@@H](C)CO)C[C@@H](C)[C@@H](CN(C)Cc1ccc(C(=O)O)cc1)O2
→ -1.5	-1.0
- C[C@@H]1CN([C@H](C)CO)C(=O)c2cc(NC(=O)Nc3ccc4c(c3)OCO4)ccc2O[C@@H](C)CCCCO[C@H]1CN(C)S(=O)(=O)c1ccccc1
→ 28.4	14.1
- COCC#Cc1cnc2c(c1)C(=O)N([C@@H](C)CO)C[C@@H](C)[C@@H](CN(C)C(=O)NC1CCCC1)O2
→ 15.8	7.2
- CCC(=O)N[C@@H]1CC[C@@H](CC(=O)NCc2ccc(OC)cc2)O[C@H]1CO
→ 5.9	11.2
- C[C@H]1CN([C@@H](C)CO)C(=O)c2cc(C3=CCCC3)cnc2O[C@@H]1CN(C)C(=O)CN(C)C
→ 24.2	16.3
- CCC(=O)Nc1ccc2c(c1)OC[C@H](C)N(C(=O)Cc1cccnc1)C[C@H](C)[C@H](OC)CN(C)C2=O
→ -1.0	0.8
- COCCNC(=O)[C@@H]1[C@@H](CO)[C@@H]2Cn3c(ccc(C4=CCCCC4)c3=O)[C@H]1N2C(=O)C1CC1
→ 8.3	0.3
- C[C@@H]1CN([C@@H](C)CO)C(=O)c2cccc(NC(=O)c3cnccn3)c2O[C@@H]1CN(C)CC1CC1
→ -2.1	9.2
- C/C=C/c1ccc2c(c1)O[C@@H](CN(C)C(=O)c1ccccn1)[C@@H](C)CN([C@H](C)CO)S2(=O)=O
→ 20.2	15.3
- CCCNC(=O)C[C@H]1CC[C@H]2[C@@H](COC[C@@H](O)CN2C(=O)CC)O1
→ 12.6	4.7
- CN1C(=O)c2cc(NS(=O)(=O)c3ccc(F)cc3)ccc2OC[C@H]2O[C@H](CC(=O)O)CC[C@H]21
→ 5.1	9.0
- COc1ccc(CN(C)C[C@H]2Oc3ccc(NC(=O)CCC(F)(F)F)cc3C(=O)N([C@@H](C)CO)C[C@H]2C)cc1
→ 6.9	3.6
- CC(C)NC(=O)Nc1ccc2c(c1)C(=O)N([C@@H](C)CO)C[C@@H](C)[C@@H](CN(C)Cc1ccccc1)O2
→ -1.3	-5.9
- Cc1ccc(S(=O)(=O)Nc2ccc3c(c2)C(=O)N([C@H](C)CO)C[C@@H](C)[C@@H](CN(C)Cc2ccncc2)OCCCC[C@@H](C)O3)cc1
→ -32.0	-24.2

(next part)
The line under a structure holds: Vaccinia stage	Vaccinia stage Venus
- O=C(Cc1cccnc1)N1CCCCN2[C@H](CO)[C@@H](c3ccc(C#CC4CCCC4)cc3)[C@@H]2C1
→ u	x
- C[C@@H]1CCCCO[C@@H](CN(C)C(=O)c2ccccc2)[C@H](C)CN([C@H](C)CO)C(=O)c2cc(NC(=O)CCC(F)(F)F)ccc2O1
→ -16.9	-19.5
- COc1ccc(C(=O)N2C[C@@H]3[C@H](c4ccccc42)[C@H](CO)N3C(=O)NC(C)C)cc1
→ 2.4	-0.3
- C[C@H]1CN([C@@H](C)CO)C(=O)c2c(c3ccccc3n2C)-c2ccccc2CO[C@H]1CN(C)C(=O)C1CC1
→ -2.0	-6.9
- CN1[C@H](C(=O)NCCN2CCCCC2)[C@@H](CO)[C@@H]2Cn3c(ccc(-c4ccc(F)cc4)c3=O)[C@@H]21
→ -6.7	7.3
- CN1c2ccc(-c3ccccc3F)cc2[C@H]2[C@H](CCN2S(=O)(=O)c2ccccc2F)[C@H]1CO
→ u	x
- C[C@@H]1CN([C@@H](C)CO)S(=O)(=O)c2ccc(C#C[C@@H](C)O)cc2O[C@H]1CN(C)Cc1ccc(-c2ccccc2)cc1
→ u	x
- C[C@H](CO)N1C[C@H](C)[C@@H](CN(C)C(=O)Nc2ccc(F)cc2)Oc2c(NS(C)(=O)=O)cccc2C1=O
→ 16.9	8.3
- C[C@H](CO)N1C[C@H](C)[C@@H](CN(C)S(=O)(=O)c2cccs2)OCCCC[C@H](C)Oc2ccc(NC(=O)C3CCCCC3)cc2C1=O
→ -17.6	-23.1
- Cc1ccc(S(=O)(=O)NCC[C@H]2CC[C@@H](NC(=O)Nc3cccc(F)c3)[C@H](CO)O2)cc1
→ -18.7	-5.3
- COc1ccccc1CN(C)C[C@H]1OCc2cnnn2CCCC(=O)N([C@@H](C)CO)C[C@H]1C
→ 4.7	2.0
- C[C@H]1CN([C@@H](C)CO)C(=O)Cc2cc(NC(=O)c3ccncc3)ccc2O[C@H]1CN(C)Cc1ccncc1
→ 8.8	11.4
- CNC[C@H]1OCCCC[C@@H](C)Oc2ccc(NC(=O)C3CCCCC3)cc2C(=O)N([C@H](C)CO)C[C@H]1C
→ 11.3	9.8
- COc1ccc2c3c([nH]c2c1)[C@@H](CO)N(C)CC31CN(C(=O)C2CC2)C1
→ 24.1	11.3
- C[C@H](CO)N1C[C@H](C)[C@@H](CN(C)C(=O)Nc2cccc3ccccc23)Oc2ccc(NC(=O)Nc3cccc4ccccc34)cc2C1=O
→ 20.5	25.3
- Cc1ccc(S(=O)(=O)N[C@@H]2CC[C@@H](CCn3cc(C4CC4)nn3)O[C@H]2CO)cc1
→ -2.8	1.9
- OC[C@H]1CC[C@@H]2O[C@H](CCc3ccc(-c4ccc(F)cc4)cc3)[C@@H](n3cc(C4CC4)nn3)C[C@@H]2O1
→ -21.8	-5.0
- C[C@@H]1CN([C@@H](C)CO)C(=O)c2cc(NC(=O)c3ccncc3)ccc2O[C@@H]1CN(C)Cc1ccc(Oc2ccccc2)cc1
→ u	x
- CNC[C@H]1Oc2c(NC(=O)Nc3ccc(C(F)(F)F)cc3)cccc2C(=O)N([C@@H](C)CO)C[C@H]1C
→ -20.3	-8.8
- C[C@@H]1CN([C@@H](C)CO)S(=O)(=O)c2ccc(-c3ccncc3)cc2O[C@H]1CN(C)Cc1ccccn1
→ -19.6	-19.2
- Cc1ccc(-c2ccc([C@@H]3[C@@H](CO)N4C(=O)CN(C(=O)Nc5cccc(F)c5)C[C@H]34)cc2)cc1
→ u	x
- COc1ccc2c3c([nH]c2c1)[C@H](CO)NCC31CCN(C(=O)Cc2ccccc2)CC1
→ 0.4	-1.7
- Cc1noc(C)c1S(=O)(=O)Nc1ccc2c(c1)C(=O)N([C@H](C)CO)C[C@H](C)[C@H](CN(C)S(=O)(=O)c1cn(C)cn1)O2
→ 6.4	15.8
- C[C@@H]1CN([C@@H](C)CO)S(=O)(=O)c2ccc(-c3cncnc3)cc2O[C@@H]1CN(C)Cc1cccnc1
→ 22.0	7.6
- COCCNC(=O)C[C@@H]1CC[C@@H]2[C@H](COC[C@@H](O)CN2Cc2ccc(Cl)c(Cl)c2)O1
→ -11.1	-13.6
- COc1ccc(NC(=O)Nc2ccc3c(c2)C(=O)N([C@@H](C)CO)C[C@H](C)[C@@H](CN(C)C(=O)Nc2ccc(OC)cc2)O3)cc1
→ 4.6	8.6
- C[C@@H]1CCCCO[C@H](CN(C)CC2CCCCC2)[C@H](C)CN([C@H](C)CO)C(=O)c2cc(NS(C)(=O)=O)ccc2O1
→ -22.3	-13.9
- CCc1csc(N2[C@@H](C#N)[C@@H](c3ccccc3-c3cccc(F)c3)[C@@H]2CO)n1
→ -18.9	-9.3
- CC(C)NC(=O)N(C)C[C@H]1Oc2cc(-c3ccncc3)ccc2S(=O)(=O)N([C@@H](C)CO)C[C@H]1C
→ 21.4	4.3
- CN(C)C(=O)C[C@H]1C[C@H]2c3cc(NC(=O)c4ccc5c(c4)OCO5)ccc3O[C@H]2[C@@H](CO)O1
→ 3.9	-0.9

Going on with the list:
The line under a structure holds: Vaccinia stage	Vaccinia stage Venus
- COc1ccc2c3c([nH]c2c1)[C@H](CO)N(C(=O)c1cccc(F)c1)CC31CN(C(=O)CC2CC2)C1
→ 18.8	14.6
- CCO[C@H]1OC(C(=O)Nc2ccccc2)=C[C@@H](c2cn(C(C)=O)c3ccccc23)[C@@H]1CCCO
→ -18.0	-13.4
- O=C(Cc1ccccc1)N[C@@H]1CC[C@H](CC(=O)N2CCCCC2)O[C@H]1CO
→ 1.8	-3.9
- CCS(=O)(=O)N1CC2(CN(C(=O)Nc3c(C)noc3C)[C@H](CO)c3c2c2ccc(OC)cc2n3C)C1
→ 8.1	-2.7
- C[C@@H]1CN([C@H](C)CO)C(=O)Cc2cc(NS(=O)(=O)c3ccc(Cl)cc3)ccc2O[C@H]1CN(C)Cc1ccncc1
→ 5.2	-4.0
- COCC#Cc1cnc2c(c1)C(=O)N([C@@H](C)CO)C[C@H](C)[C@@H](CN(C)C(=O)c1ccc3c(c1)OCO3)O2
→ 32.8	9.7
- O=C(C[C@H]1C=C[C@H](NC(=O)c2ccc(F)cc2)[C@@H](CO)O1)NCCc1ccccc1
→ -8.5	7.1
- COc1ccc2c3c(n(C)c2c1)[C@H](CO)N(C(=O)c1cccnc1)CC31CN(C(=O)c2cccnc2)C1
→ 16.9	10.9
- CCCNC(=O)[C@@H]1[C@@H](CO)[C@@H]2Cn3c(ccc(-c4ccncc4)c3=O)[C@H]1N2Cc1ccccc1F
→ -2.9	9.0
- Cc1ccc(S(=O)(=O)Nc2ccc3c(c2)C(=O)N([C@@H](C)CO)C[C@@H](C)[C@H](CN(C)C(=O)Nc2cccc4ccccc24)O3)cc1
→ 27.3	26.2
- C[C@@H]1CN([C@H](C)CO)C(=O)c2cc(NS(=O)(=O)c3cn(C)cn3)ccc2O[C@@H]1CN(C)Cc1ccc(C(F)(F)F)cc1
→ 3.5	2.3
- CC(=O)N1CCCCN2[C@H](CO)[C@@H](c3ccc(-c4cccc(C(=O)N(C)C)c4)cc3)[C@@H]2C1
→ 23.5	10.2
- COc1ccc2c3c(n(C)c2c1)[C@@H](CO)N(CC1CC1)CC31CN(C(=O)c2ccccc2)C1
→ -20.1	-12.8
- CO[C@H]1CN(C)C(=O)c2ccc(NC(=O)Nc3cc(F)ccc3F)cc2OC[C@@H](C)N(C(=O)c2cnccn2)C[C@H]1C
→ 0.2	9.9
- C[C@@H]1CN([C@H](C)CO)C(=O)c2cc(-c3ccccc3)cnc2O[C@H]1CN(C)Cc1ccc(C(=O)O)cc1
→ 17.7	3.7
- CC(=O)N1Cc2cc(C(=O)NCc3cc(F)cc(F)c3)nc(-c3cccc(C4=CCCC4)c3)c2[C@@H]1CCO
→ -5.1	-5.7
- O=C(N[C@H]1C=C[C@H](CC(=O)N2CCN(c3ccccc3)CC2)O[C@H]1CO)c1ccccc1
→ -2.9	-0.7
- CO[C@H]1CN(C)C(=O)c2cc(NC(C)=O)ccc2OC[C@H](C)N(Cc2ccncc2)C[C@@H]1C
→ 7.6	10.5
- Cn1cnc(S(=O)(=O)N2C[C@H](O)COC[C@H]3O[C@H](CC(=O)NC4Cc5ccccc5C4)CC[C@@H]32)c1
→ 7.3	1.1
- O=C(C[C@H]1CC[C@H]2[C@@H](COC[C@@H](O)CN2C(=O)Nc2cccc(F)c2)O1)NCCCN1CCOCC1
→ -2.5	-4.7

Of the compounds above, 3 have a COOH group:
The line under a structure holds: Vaccinia stage	Vaccinia stage Venus
- Cc1noc(C)c1S(=O)(=O)Nc1ccc2c(c1)C(=O)N([C@@H](C)CO)C[C@@H](C)[C@@H](CN(C)Cc1ccc(C(=O)O)cc1)O2
→ -1.5	-1.0
- CN1C(=O)c2cc(NS(=O)(=O)c3ccc(F)cc3)ccc2OC[C@H]2O[C@H](CC(=O)O)CC[C@H]21
→ 5.1	9.0
- C[C@@H]1CN([C@H](C)CO)C(=O)c2cc(-c3ccccc3)cnc2O[C@H]1CN(C)Cc1ccc(C(=O)O)cc1
→ 17.7	3.7
